# Compound activity as filed in PubChem.
# eIF4H inh: inhibitors of RNA binding by human eIF4H; Q15056; eIF4H fluorescence polarization binding assay; 290,000 compounds, 0.94% hits; inhibition, % at 35 µM; AID 2012;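 active = 50% or more with normal probe brightness, or confirmed in later tests; about a fifth of its hits are not listed in these tables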;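 also: calls also rest on retests at 20 µM and on dose response follow-up; 0% = protein and probe with vehicle and 100% = probe without protein; strong numbers were not always called active; many hits fall short of the cut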
# Env fusion inh: blocks HIV Env-driven cell-cell fusion; 360,000 compounds, 1.1% hits; inhibition, % at 12.3 µM; HeLa-JRFL Env/CEM21 cell fusion, luciferase;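 active = mean replicate inhibition score of at least 50 and every replicate individually at or above 50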;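 also: 0% = plate neutral controls and 100% = maraviroc near 300 nM; one replicate is shown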
# MT1-MMP act inh: MT1-MMP (human) activation inhibition; HT1080 RFP-PRO-GFP cells, GFP/RFP ratio fluorescence, overnight; percent of plate control window, DMSO zero; GFP/RFP ratio change, % at 20 µM; 360,000 compounds, 0.061% hits;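 active = GFP/RFP ratio change of at least 30% with cell ATP level not reduced by more than half and red fluorescence within 50% of control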; also: strong numbers were not always called active
#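 Material – HT1080 RFP-PRO-GFP cells · Control set – DMSO wells and RFP-L50D-GFP cells · Incubation – overnight cell settling, then overnight compound exposure, 37 °C, 5% CO2 · Compound dosing – single-point 20 µM compound, 1% DMSO · Read-out – GFP/RFP fluorescence ratio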
# PABP polyA inh: PABP-poly(A) binding inhibition; P11940; PABP-poly(A) RNA binding, fluorescence polarization; inhibition, % at 35 µM; 290,000 compounds, 1% hits; AID 2014;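 active = 50% or more with normal probe brightness, or confirmed in later tests; about a fifth of its hits are not listed in these tables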;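 also: calls also rest on retests at 20 µM and on dose response follow-up; controls were probe without protein and protein plus probe with vehicle; some compounds called inactive have numbers as strong as hits; many hits fall short of the cut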
# Target sequence (P11940 whole entry, looked up): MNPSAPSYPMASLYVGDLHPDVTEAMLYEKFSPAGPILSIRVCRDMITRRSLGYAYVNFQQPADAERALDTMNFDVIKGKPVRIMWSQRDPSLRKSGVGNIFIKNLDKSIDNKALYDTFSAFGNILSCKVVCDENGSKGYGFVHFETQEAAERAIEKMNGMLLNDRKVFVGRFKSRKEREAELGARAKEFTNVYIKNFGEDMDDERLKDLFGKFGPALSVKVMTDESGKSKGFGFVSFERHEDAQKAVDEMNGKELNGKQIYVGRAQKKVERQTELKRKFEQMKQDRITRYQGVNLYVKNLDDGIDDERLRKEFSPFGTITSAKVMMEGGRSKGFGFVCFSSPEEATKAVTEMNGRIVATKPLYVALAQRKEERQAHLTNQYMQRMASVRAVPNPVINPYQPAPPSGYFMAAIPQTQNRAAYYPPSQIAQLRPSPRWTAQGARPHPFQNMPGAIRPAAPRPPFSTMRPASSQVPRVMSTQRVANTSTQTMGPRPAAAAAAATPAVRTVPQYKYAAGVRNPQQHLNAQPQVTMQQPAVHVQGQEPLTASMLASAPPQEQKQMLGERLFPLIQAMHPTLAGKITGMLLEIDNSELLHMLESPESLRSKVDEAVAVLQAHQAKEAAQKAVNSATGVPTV
# CSC inhib: cancer stem cell inhibition; cancer stem cell-like cells viability, luminescence; inhibition, % at 7.5 µM; 300,000 compounds, 1.1% hits;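 active = mean at 75% or more and at least half the replicates too; tested in HMLE shEcad cells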;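 also: 0% = median of negative and 100% = median of positive control wells; the first replicate is given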
# Rce1 inh: blocks yeast Ras-converting enzyme; yeast membranes, quenched prenylated peptide cleavage fluorescence; Q03530; calls only; 290,000 compounds, 0.27% hits;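 active = fall in fluorescence gain of 50% or more versus controls, with final raw signal at or below 3038400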;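 also: plate controls were neutral control wells for no effect and wells lacking membranes for full effect; tested at 10 µM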
# Target sequence (Q03530 whole entry, looked up): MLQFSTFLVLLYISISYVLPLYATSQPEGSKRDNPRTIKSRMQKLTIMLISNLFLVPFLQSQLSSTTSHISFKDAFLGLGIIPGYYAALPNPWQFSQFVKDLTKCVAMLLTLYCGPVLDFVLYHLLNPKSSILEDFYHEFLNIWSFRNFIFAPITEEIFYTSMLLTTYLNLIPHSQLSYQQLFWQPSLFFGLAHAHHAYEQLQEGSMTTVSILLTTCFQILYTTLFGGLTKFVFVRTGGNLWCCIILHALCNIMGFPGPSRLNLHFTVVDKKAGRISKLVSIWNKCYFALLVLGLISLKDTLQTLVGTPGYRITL
# UUG fidelity: modulators of start codon recognition fidelity in yeast. 350,000 compounds, 0.13% hits. S. cerevisiae UUG-firefly luciferase reporter, luminescence/redox ratio. activity score, % at 18.7 µM;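 active = replicate mean at a twofold rise or more, about +100% in these data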;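 also: firefly luciferase made from a UUG start codon reports start codon fidelity; reporter light over untreated wells divided by growth signal over untreated wells; some hits fall short of that in this replicate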
# MT1-MMP act inh RFP: also measured in MT1-MMP act inh; calls as there; RFP signal change, %; measured here: RFP expression control read;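 0 = vehicle wells; hits needed this value within 50% of zero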
# * marks the source's active call; other numbers are inactive results; i = inactive; / = no result given; & = joins results of further samples; [ ] = remark or other dose. Not all compounds are listed. The share of hits here may be higher or lower than overall.
# Under each structure: eIF4H inh, Env fusion inh, MT1-MMP act inh, MT1-MMP act inh RFP, PABP polyA inh, CSC inhib, Rce1 inh, UUG fidelity
> CCN1CCN(C(c2ccccc2)c2nnnn2Cc2ccc(OC)cc2)CC1 (centres undefined)
 : -5, -15, -2, -1, -4, -2, i, /
> Nc1o[nH]c(=O)c1C1CCCCC1
 : /, 0, -2, 2, /, /, /, -16
> C=CCc1cccc2cc(C(=O)NCc3ccc(C(=O)OCC)o3)c(=O)oc12
 : 8, -25, 4, 8, 11, -9, i, 4
> CCN1CCN(C(=S)c2ccc(O)cc2)CC1
 : -2, -5, -3, 1, 5, 8, i, 1
> CCc1ccc(NC(=O)CCS(=O)(=O)c2ccc(Br)cc2)cc1
 : 13, 15, -1, 1, 14, -6, i, -7
> Cc1ccc(-c2nc(CS(=O)(=O)CC(=O)NCCN3CCOCC3)c(C)o2)cc1
 : -12, 0, -1, 3, -3, 6, i, -14
> CCCCC(=O)Nc1ccccc1CC
 : 1, 6, 1, 3, 2, -7, i, /
> Nc1ccc(Oc2ccc(Cl)cc2)cc1
 : -6, /, -10, -7, -6, /, i, -22
> CCC(C)NC(=O)Cc1c(C)c2cc3c(cc2oc1=O)OC(C)(C)CC3 (centres undefined)
 : -14, -8, 4, -1, 11, -4, i, -21
> CSCCC(NS(=O)(=O)c1ccc2c(c1)oc(=O)n2C)C(=O)NC1CCC(C)CC1 (centres undefined)
 : -10, 60*, -3, 8, -8, -10, i, 3
> NC(=O)/C=C\c1cn(-c2ccccc2)nc1-c1ccc2c(c1)OCCO2
 : 26, 4, 1, -3, -2, 10, i, -2
> CC(C)[C@H](NC(=O)c1cccc(S(=O)(=O)N2CCCC2)c1)c1nc2ccccc2[nH]1
 : 13, /, 4, 4, -1, -6, i, -25
> CC1CCN(C(=O)c2[nH]cnc2C(=O)N[C@@H](C)C(=O)OCc2ccccc2)CC1
 : 8, -7, 0, 4, -3, 27, i, -8
> CC(=O)NCCNc1nc(NC(C)C)nc2cc(-c3ccccc3)sc12
 : /, -13, 7, 11, /, /, /, -2
> CCCCC1(C)NC(=O)N(CC(=O)N2CCc3ccccc32)C1=O (centres undefined)
 : /, 0, -1, 3, /, -16, /, 3
> CCN(CC)S(=O)(=O)c1ccc2c(c1)nc(SCC(=O)N1CCCCCC1)n2-c1ccc(OC)cc1
 : -10, 10, -10, -10, 0, 22, i, -18
> COC(=O)c1cc(OC)c(OC)cc1NC(=O)CN1CCOCC1
 : -5, -18, 10, 7, 2, -3, i, -1
> O=C(C1CCCN(S(=O)(=O)c2ccccc2)C1)N1CCN(c2ccc(F)cc2)CC1 (centres undefined)
 : 2, -78, 1, -14, -1, -4, i, -13
> CC(C)NC(=O)C1(C)CCN1C(=O)c1cccn1C (centres undefined)
 : /, -5, -2, -2, /, /, /, -2
> Cn1c(=O)c2c(nc(NCc3ccccc3)n2CC(N)=O)n(C)c1=O
 : 8, -9, -3, 0, 1, -5, i, /
> COc1cc(/C=C2\COC/C(=C\c3ccc(O)c(OC)c3)C2=O)ccc1O
 : -1, -141, -16, -25, 12, 87*, i, -9
> COc1ccccc1/C=C1\CCCC2=C1Nc1nnnn1C2c1ccccc1OC (centres undefined)
 : -8, 3, -44, -13, -12, 55, /, -12
> CN(Cc1ccccc1Cl)C(=O)C1CC(=O)N(c2ccc3c(c2)OCCO3)C1 (centres undefined)
 : /, -1, 2, 1, /, /, /, 5
> COc1cc(OC)cc(C(=O)N2CCC3(CC2)NCCc2[nH]cnc23)c1
 : -13, 7, 4, 5, 7, -15, i, -21
> Cc1cc(NC(=O)c2cccc(S(=O)(=O)N(C)C)c2)n(-c2ccccn2)n1
 : 9, -42, 13, 1, -5, 18, i, -17
> CC1S/C(=N/N=C/c2ccco2)N(Cc2ccccc2)C1=O (centres undefined)
 : -4, 1, -6, -3, 8, -11, i, -2
> CC12CCC(O)CC1=CCC1C2CCC2(C)C3=NN=CC3CC12 (centres undefined)
 : /, 13, 3, 2, /, /, /, -20
> COc1ccc(-n2ncc3c(N4CCc5ccccc54)ncnc32)cc1
 : 5, -172, -1, 0, -14, /, i, -16
> COc1ccc(CCNC(=O)CC(c2ccccc2)c2cc(C)ccc2O)cc1OC (centres undefined)
 : -6, /, -6, -12, 0, -14, i, 9
> COc1cccc(-c2cc(NC=O)c3ncc(-c4cccc(C(=O)NCCN(C)C)c4)n3c2)c1
 : /, -13, 1, 0, /, /, /, -24

# Exported with bars between the fields: 13 of the compounds above
Compound | eIF4H inh | Env fusion inh | MT1-MMP act inh | MT1-MMP act inh RFP | PABP polyA inh | CSC inhib | Rce1 inh | UUG fidelity
CCN1CCN(C(c2ccccc2)c2nnnn2Cc2ccc(OC)cc2)CC1 (centres undefined) | -5 | -15 | -2 | -1 | -4 | -2 | i | /
Nc1o[nH]c(=O)c1C1CCCCC1 | / | 0 | -2 | 2 | / | / | / | -16
C=CCc1cccc2cc(C(=O)NCc3ccc(C(=O)OCC)o3)c(=O)oc12 | 8 | -25 | 4 | 8 | 11 | -9 | i | 4
CCN1CCN(C(=S)c2ccc(O)cc2)CC1 | -2 | -5 | -3 | 1 | 5 | 8 | i | 1
CCc1ccc(NC(=O)CCS(=O)(=O)c2ccc(Br)cc2)cc1 | 13 | 15 | -1 | 1 | 14 | -6 | i | -7
Cc1ccc(-c2nc(CS(=O)(=O)CC(=O)NCCN3CCOCC3)c(C)o2)cc1 | -12 | 0 | -1 | 3 | -3 | 6 | i | -14
CCCCC(=O)Nc1ccccc1CC | 1 | 6 | 1 | 3 | 2 | -7 | i | /
Nc1ccc(Oc2ccc(Cl)cc2)cc1 | -6 | / | -10 | -7 | -6 | / | i | -22
CCC(C)NC(=O)Cc1c(C)c2cc3c(cc2oc1=O)OC(C)(C)CC3 (centres undefined) | -14 | -8 | 4 | -1 | 11 | -4 | i | -21
CSCCC(NS(=O)(=O)c1ccc2c(c1)oc(=O)n2C)C(=O)NC1CCC(C)CC1 (centres undefined) | -10 | 60* | -3 | 8 | -8 | -10 | i | 3
NC(=O)/C=C\c1cn(-c2ccccc2)nc1-c1ccc2c(c1)OCCO2 | 26 | 4 | 1 | -3 | -2 | 10 | i | -2
CC(C)[C@H](NC(=O)c1cccc(S(=O)(=O)N2CCCC2)c1)c1nc2ccccc2[nH]1 | 13 | / | 4 | 4 | -1 | -6 | i | -25
CC1CCN(C(=O)c2[nH]cnc2C(=O)N[C@@H](C)C(=O)OCc2ccccc2)CC1 | 8 | -7 | 0 | 4 | -3 | 27 | i | -8

# (cont.)
# Under each structure: eIF4H inh, Env fusion inh, MT1-MMP act inh, MT1-MMP act inh RFP, PABP polyA inh, CSC inhib, Rce1 inh, UUG fidelity
> OC(c1cccc(Cl)c1)c1nc(-c2ccccc2)cs1 (centres undefined)
 : /, -2, 4, -9, /, /, /, -6
> Cc1ccccc1OCC1Cn2c(nc3c2c(=O)[nH]c(=O)n3C)O1 (centres undefined)
 : -8, -11, -3, 3, -17, -15, i, /
> CO[C@H]1CN(C)C(=O)c2cc(NC(=O)c3ccccc3)ccc2OC[C@H](C)NC[C@@H]1C
 : /, -1[16.7 µM], -7, 3, /, /, /, 29
> COc1ccc(NC(=O)CC2C(=O)N(CCc3ccccc3)C(=S)N2Cc2cccnc2)cc1 (centres undefined)
 : -12, 2, 3, -5, 9, 21, i, 4
> OCCNc1nc(-c2ccccc2)nc2c1oc1ccccc12
 : -5, -2, 0, 2, 14, -4, i, -6
> Cc1nnc(N(Cc2ccco2)C(=O)c2ccno2)s1
 : 55*, /, -11, 1, 68*, -23, i, -9
> COC(=O)c1sccc1NC(=O)C1CC1
 : -9, 5, 4, 7, -6, 13, i, /
> CC(=O)N(c1ccccc1)c1nc(/C=C/C(=O)Nc2c(C)cc(C)cc2C)cs1
 : -4, 7, 0, -3, -1, -3, i, 13
> Cc1cccc(N=C(NO)c2nonc2N)c1
 : 4, 3, 6, 6, 7, 9, i, -9
> COc1ccc(CC(=O)NCc2nc(-c3ccccc3)no2)cc1
 : 1, -21, 3, 5, 0, -7, i, -10
> Cc1c(NC(=O)c2cccnc2C(=O)O)cccc1C(=O)O
 : 6, /, 4, 7, 2, 5, i, /
> O=C(CN1C(=O)NC2(CCc3ccccc32)C1=O)c1c[nH]c2ccccc12 (centres undefined)
 : /, -1, 5, 5, /, -8, i, -9
> CCCCCC(O)(c1ccc(OCC)cc1)C(CN1CCOCC1)c1ccccc1 (centres undefined)
 : 1, 59*, -61, -39, 1, 20, i, 1
> CCCCC(C(=O)O)C(C)CC(=O)Nc1nccs1 (centres undefined)
 : -11, -14, 1, 4, -8, 17, i, -19
> Clc1ccc(-c2nnc3ccccn23)cc1
 : 0, /, 3, 4, -10, 4, i, 11
> CCN(CC)S(=O)(=O)c1ccc(C(=O)OCC(=O)c2ccc3c(c2)NC(=O)CO3)cc1
 : -7, /, 9, 5, -2, 2, i, /
> C=CCOc1ccc(/C=N/NC(=O)C(=O)N2CCCCCC2)cc1OC
 : 1, -16, 0, 0, 4, /, i, -7
> COc1ccc(C2c3ccc(O)cc3Oc3ncn4nc(-c5ccccn5)nc4c32)cc1OC (centres undefined)
 : -9, 2, -4, 2, 4, 4, i, /
> Cc1ccc(-n2c(=O)c3ccc(C(=O)NCc4ccco4)cc3n(Cc3ccccc3C#N)c2=O)cc1
 : -5, -4, 2, 5, -24, /, i, /
> CC1CCC(NC(=O)c2cccc(S(=O)(=O)N3CCN(c4ccc(F)cc4)CC3)c2)CC1 (centres undefined)
 : /, 3, -6, -14, /, 1, i, /
> O=C(COc1ccc(Cl)cc1[N+](=O)[O-])N/N=C/c1cccs1
 : -10, 10, -1, -2, -4, 41, i, 5
> Cn1c(=O)c2c(nc(NCc3cccnc3)n2Cc2ccccc2Cl)n(C)c1=O
 : 4, -11, -1, 0, 0, -1, i, /
> COc1ccc(NC(=S)N2CCCCCC2)cc1OC
 : 4, 17, 3, 7, -8, -1, i, -28
> O=C1[C@@H]2Cc3c([nH]c4ccccc34)C(c3cccc([N+](=O)[O-])c3)N2C(=O)CN1CCCO (some centres undefined)
 : 1, 9, 1, 2, 3, -9, i, 17
> CCOc1ccc(NC(=O)CN(C)C(=O)c2cccnc2SC)cc1OCC
 : -14, /, 2, 3, -2, -13, i, -4
> NC(=O)[C@@H]1CCCN1Cc1nc(-c2ccc(C(F)(F)F)cc2)no1
 : -6, -6, 0, 3, -3, 0, i, /
> Cc1ccc(C)c(S(=O)(=O)N2C(=S)NC(=O)C2CC(C)C)c1 (centres undefined)
 : -10, /, 7, -6, -8, 10, i, -10
> Cc1cccc(CN(C)C[C@@H]2OCc3cnnn3CCCC(=O)N([C@@H](C)CO)C[C@H]2C)c1
 : /, -1, 3, 4, /, /, /, -23&4&8
> O=S(=O)(c1ccc(Cl)cc1)N1CN(CC2CCCO2)c2nc3ccccc3nc21 (centres undefined)
 : -2, 7, -8, -5, 5, 1, i, -6
> C[C@@H](NC(=O)c1[nH]cnc1C(=O)Nc1ccccc1F)c1ccccc1
 : /, -27, 4, -2, /, /, /, -10

# (further entries)
# Under each structure: eIF4H inh, Env fusion inh, MT1-MMP act inh, MT1-MMP act inh RFP, PABP polyA inh, CSC inhib, Rce1 inh, UUG fidelity
> O=C(O)CCCC(=O)Nc1ccc(S(=O)(=O)Nc2nccs2)cc1
 : -1, -2, -6, -1, -6, 4, i, -23
> CCOC(=O)C1=C(C)N[C@@]2(O)c3ccccc3C(=O)[C@@]12O
 : -3, -61, 3, 4, -11, -4, i, -17
> CC1CCCCC1NC(=O)c1cccc(S(=O)(=O)N2CCN(Cc3ccccc3)CC2)c1 (centres undefined)
 : /, -1, 10, -7, /, -12, i, -1
> Cc1ccc(OCC(O)Cn2c(N3CCOCC3)nc3c2c(=O)[nH]c(=O)n3C)cc1 (centres undefined)
 : -8, /, -3, 3, -1, 2, i, -1
> COC(=O)c1ccc(Cn2nc(-c3cc(C)ccc3C)ccc2=O)cc1
 : -2, 8, -1, -2, 2, 6, i, 5
